# LANA-H2B inh: blocks KSHV LANA binding to histone H2A/H2B; AID 2629; cell-free LANA-H2A/H2B peptide, fluorescence polarization; hit rate 0.6% among 320,000; inhibition, % (test concentration not listed); in the data active means inhibition mostly above about 10%, no sharp cut-off; inactive means mostly below about 6.7%;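 further: stock transfer was 7.5 nL into about 10 µL; 0% = median of vehicle wells and 100% = median of positive control wells; one replicate is shown; the record names a cut of 25% in any replicate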
# Target sequence (Q9QR71 whole entry, looked up): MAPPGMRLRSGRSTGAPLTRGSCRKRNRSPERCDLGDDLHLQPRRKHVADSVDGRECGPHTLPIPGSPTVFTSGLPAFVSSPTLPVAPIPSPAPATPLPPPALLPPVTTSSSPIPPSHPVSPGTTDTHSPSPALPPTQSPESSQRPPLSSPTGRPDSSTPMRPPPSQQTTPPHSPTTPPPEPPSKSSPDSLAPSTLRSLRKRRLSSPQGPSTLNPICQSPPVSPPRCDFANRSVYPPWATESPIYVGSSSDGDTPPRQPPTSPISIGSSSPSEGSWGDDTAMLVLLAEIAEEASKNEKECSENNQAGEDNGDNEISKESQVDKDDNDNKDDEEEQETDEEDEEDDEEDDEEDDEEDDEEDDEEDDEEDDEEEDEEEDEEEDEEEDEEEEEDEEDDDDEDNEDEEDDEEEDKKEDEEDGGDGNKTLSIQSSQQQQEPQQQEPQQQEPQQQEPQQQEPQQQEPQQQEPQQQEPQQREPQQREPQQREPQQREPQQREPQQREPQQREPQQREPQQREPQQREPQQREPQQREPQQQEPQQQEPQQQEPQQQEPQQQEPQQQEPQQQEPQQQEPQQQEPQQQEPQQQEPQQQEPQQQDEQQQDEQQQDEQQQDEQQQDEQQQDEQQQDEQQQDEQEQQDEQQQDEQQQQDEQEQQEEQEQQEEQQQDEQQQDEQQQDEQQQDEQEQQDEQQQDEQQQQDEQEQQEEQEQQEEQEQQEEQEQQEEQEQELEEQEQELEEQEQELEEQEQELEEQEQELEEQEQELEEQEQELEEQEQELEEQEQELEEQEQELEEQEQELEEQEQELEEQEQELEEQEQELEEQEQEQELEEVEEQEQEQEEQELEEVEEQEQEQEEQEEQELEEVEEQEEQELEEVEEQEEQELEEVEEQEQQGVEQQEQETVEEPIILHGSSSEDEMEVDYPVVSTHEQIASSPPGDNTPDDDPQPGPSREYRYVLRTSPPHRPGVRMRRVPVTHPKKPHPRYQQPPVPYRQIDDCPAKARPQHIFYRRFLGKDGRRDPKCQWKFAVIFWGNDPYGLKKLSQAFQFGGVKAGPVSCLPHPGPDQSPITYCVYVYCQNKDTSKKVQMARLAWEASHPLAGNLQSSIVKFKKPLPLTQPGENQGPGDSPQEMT
# Ecoli growth: E. coli growth inhibition; Escherichia coli growth, OD600, 23 h; stronger effect = lower value; OD600 absorbance (test concentration not listed); hit rate 0.21% among 330,000; AID 1053175;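 active means OD600 absorbance below the run mean of sample wells minus 3.6 SD, in any replicate, cut at about 0.56 in these data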;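 further: stock transfer was 300 nL into about 60 µL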
# HNF4A DNA FP: change in binding of human HNF4 alpha to DNA; P41235; HNF4a-FITC DNA binding, fluorescence polarization, 1 h; activity change, % at 10 µM; hit rate 0.3% among 360,000; AID 1224865; in the data active means activity change above about 30%, passing the limit was not always enough;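 further: controls were the assay level and a saturating level of protein; the project sought stronger binding though the title names inhibitors; some compounds called inactive have numbers as strong as hits; positive values seem to mean higher polarization but the record does not say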
# UCH37 inh: human UCH37 deubiquitinating enzyme inhibition; Q9Y5K5; purified proteasome/UCH37, Ub-AMC cleavage fluorescence; inhibition, % (concentration not given with the values); hit rate 0.33% among 330,000; AID 588478;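 active means mean of two replicates above 20%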;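 further: 0% = compound-free wells with enzyme and 100% = wells lacking proteasome; stock transfer was 100 nL into about 20 µL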
#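 assay system = human UCH37 enzyme supplied as purified proteasome complex | amount = proteasome at 0.15 nM in the dispensed enzyme solution | schedule = 30 min compound-proteasome preincubation then 25 min substrate reaction, room temperature | measured by = fluorescence, ex 355 nm, em 460 nm | benchmarks = no-proteasome wells (full inhibition) and compound-free wells (no inhibition)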
# Vif A3G: HIV-1 Vif–A3G interaction blockers – biochemical, TR-FRET, GST-Vif 1-94, biotin-A3G peptide, dose response retest, primary screen (AID 1117319) | inhibition, %; hits with a dose series show IC50 in µM | TR-FRET GST-Vif / biotin-A3G peptide binding; higher % means a stronger effect; test concentration not given here; strong numbers were not always called active | hit rate 0.57% among 260,000;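 active means above the screen mean plus three standard deviations and confirmed in dose response; inconclusive means results disagree or hit not tested in dose response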;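 further: Vif residues 1-94 fused to GST binding biotinylated APOBEC3G peptide 110-148; 0% = full assay without inhibitor and 100% = GST in place of GST-Vif; retest series ran down from 100 µM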
# B2AR ag: human beta-2 adrenergic receptor agonism by FAP | P07550 | hit rate 0.43% among 340,000 | response, % (concentration not given with the values) | Am2.2-beta2AR cells, FAP receptor internalization, flow cytometry; reference of the scale not given here;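 active means response above a set limit, near 3 SD of response in nonfluorescent compounds, cut at about 42% in these data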;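 further: stock transfer was 100 nL into about 11 µL; a reference agonist was the positive control; negative values mostly stem from fluorescent compounds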
# Bfl-1 A1 inh: inhibitors of the anti-apoptotic protein A1, read as caspase activation; MEF A1-2A-BIM cells, Caspase-Glo 3/7 luminescence, 3 h; percent of clofoctol response, vehicle zero; caspase activation, % (test concentration not listed); hit rate 0.066% among 330,000;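 active means over half of replicate activation scores above 10%, or exactly half above 10 with the replicate mean above 10; inconclusive means replicate mean below 10 yet half the replicates above 10; inactive means over half of replicates below 10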;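 further: wells of about 30 µL received 50 nL stock; many hits fall short of the cut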
# Starred values were filed as active, the others as inactive; i = inactive; ? = inconclusive; nt = no result given; & = joins results of further samples. This is a subset, so the mix of outcomes need not match the whole.
SMILES,LANA-H2B inh,Ecoli growth,HNF4A DNA FP,UCH37 inh,Vif A3G,B2AR ag,Bfl-1 A1 inh
NCCc1c[nH]c2ccc(F)cc12,-5.4,0.72,nt,2.2,nt,nt,-0.2
CCOC(=O)c1c(C)n(CCOC)c2ccc(O)cc12,2.1,0.7,-1.0,-0.1,6%,3,0.1
COc1ccc(C2NCCc3[nH]cnc32)cc1 (centres undefined),-3.4,0.68,1.6,2.0,-8%,-2,-0.1
Cc1ccc(P(=S)(c2ccc(C)o2)N2CCOCC2)o1,-2.0,nt,-2.3,nt,0%,-4,0.5
CCOP(=O)(OCC)/C(C#N)=C/c1ccoc1,11,0.65,10,-4.1,?,12,2.3
Cc1cc(C)c2c(ccc3cccc[n+]32)c1,-3.7,0.69,0.1,-8.2,nt,-2,-0.6
CC(=O)C1C(N2CC2)CC2C3CCC4=CC(=O)CCC4(C)C3CCC21C (centres undefined),nt,nt,3.6,nt,-11%,3,nt
CC1CN=C(Nc2ccc(F)c(Cl)c2)S1 (centres undefined),0.0,0.61,3.7,3.1,nt,-3,-1.1
COc1ccc(NC(=O)N2CCC3(CC2)OCCO3)c(OC)c1,0.2,0.66,-1.3,2.2,10%,-1,0.4
CC(C)NC(C)C(=O)C12CC3CC(CC(C3)C1)C2 (centres undefined),-3.4,0.68,2.0,0.0,-2%,11,1.0
CC(=O)NNC(=O)CN1C(=O)CN=C(c2ccccc2)c2cc(Br)ccc21,-0.4,0.69,1.1,0.9,13%,-4,0.4
CCN(CC)CC(=O)Nc1ccc(Cl)cc1C(=O)c1ccccc1,2.1,0.73,0.5,2.1,0%,-2,0.3
Cc1ccc(CN2C3CCCC2CC(NC(=S)NCc2ccccc2)C3)cc1 (centres undefined),-2.4,0.63,4.7,4.6,-6%,1,-0.5
N=C1SCC(=O)N1Cc1ccccc1,-6.2,0.7,5.8,1.1,nt,-11,0.5
O=C(NN=Cc1ccc(N(CCCl)CCCl)cc1)c1cc(=O)[nH]c(=O)[nH]1,nt,0.73,-0.1,3.0,2%,-1,nt
N[C@@]1(C(=O)O)CC[C@@H](C(=O)O)C1,3.0,nt,3.2,2.7,nt,3,?
Cc1ccc(NC2=NCCCS2)c(C)c1C,nt,0.63,0.0,2.3,30%,3,0.6
CCOc1ccccc1C1SCC(=O)Nc2c1c(=O)[nH]n2C(CC)CC (centres undefined),4.6,0.8,0.5,1.9,-2%,8,0.0
COc1ccc2[nH]cc(CCN=C(N)N)c2c1,-9.7,0.66,-5.8,-0.4,-2%,10,-0.9
CC(C)NS(=O)(=O)c1ccc(OCC(=O)N2CCN(Cc3ccccc3)CC2)c(Cl)c1,6.4,0.74,0.6,6.0,4%&-2%,-3,0.4
CN1/C(=C\C=C\C2=[N+](C)c3ccc4ccccc4c3C2(C)C)C(C)(C)c2ccccc21,-38,nt,nt,nt,-109%,nt,-1.5
N=c1sc2c(n1Cc1ccccc1)CCCC2,-0.2,0.68,3.2,3.0,6%,-11,0.0
O=C(c1cccs1)c1cn(Cc2ccccc2Cl)c2ccccc12,0.2,0.69,-1.9,1.0,26%,12,nt
O=c1c2ccccc2nc(CN2CCOCC2)n1-c1ccccc1F,-1.1,0.67,2.9,4.4,7%,0,1.5
CCOP(=O)(OCC)C(NC(=O)NC)C(N)=O (centres undefined),-3.6,0.71,3.3,3.2,2%,3,-0.2
COC(=O)C1=C(c2ccccc2OCc2ccccc2)C[C@@H]2CC[C@H]1N2C(=O)NCc1ccc(N(C)C)cc1,-3.2,0.81,2.4,-26,nt,-2,0.3
COc1ccc(NC(=O)C2C3CCC(O3)C2C(=O)O)c(OC)c1 (centres undefined),-5.7,nt,1.9,nt,nt,1,0.3
CCC(=NCc1cccnc1)c1c(O)n(-c2ccccc2)c(=O)[nH]c1=O,2.1,0.65,-0.2,2.9,31%,4,-0.3
CCN1CCN(Cc2nc3ccc([N+](=O)[O-])cc3c(=O)n2-c2ccccc2F)CC1,4.4,0.68,0.9,6.7,2%,-3,0.0
CCCCC(=O)N/N=C/c1c(O)n(Cc2ccco2)c(=O)[nH]c1=O,2.5,0.66,-2.7,4.4,?,0,-0.4

# Results in HNF4A DNA FP and Ecoli growth, for some of the entries so far:
molecule	HNF4A DNA FP	Ecoli growth
CCOP(=O)(OCC)C(NC(=O)NC)C(N)=O (centres undefined)	3.3	0.71
COC(=O)C1=C(c2ccccc2OCc2ccccc2)C[C@@H]2CC[C@H]1N2C(=O)NCc1ccc(N(C)C)cc1	2.4	0.81

# (next part)
SMILES,LANA-H2B inh,Ecoli growth,HNF4A DNA FP,UCH37 inh,Vif A3G,B2AR ag,Bfl-1 A1 inh
CCOc1cc(CNCCc2cccc(F)c2)ccc1OC,-2.7,0.67,2.3,1.1,-2%,3,1.9
CC(C)c1ccc(-n2c(O)c(/C=N/N3CCOCC3)c(=O)[nH]c2=S)cc1,4.5,0.67,0.2,9.7,nt,7,0.8
CN(Cc1c[nH]c2ccccc12)C1CCCCC1,3.1,0.7,23,2.1,?,3,0.8
COc1ccc(CCn2c(O)c(C=NCc3ccc4c(c3)OCO4)c(=O)[nH]c2=O)cc1OC,-1.6,0.77,5.8,4.0,3%,4,-0.3
CCCCn1c(O)c(/C=N/N2CCOCC2)c(=O)[nH]c1=S,-2.8,0.68,3.6,11,-8%,-4,-0.2
C[C@]1(O)CCC2C3CC[C@H]4C[C@@H](OC(=O)CNC(=O)CN)CC[C@]4(C)C3CC[C@@]21C (some centres undefined),-5.6,0.64,2.0,1.6,-2%,0,-0.3
Cc1ccc(C(=O)N/C(=C\Cl)P(=O)(c2ccccc2)c2ccccc2)cc1,-0.4,nt,-1.2,0.4,-1%,2,-1.1
CC(=O)O[C@@]12CO[C@@H]1C[C@@H](O)[C@@]1(C)C(=O)[C@H](O)C3=C(C)[C@@H](OC(=O)[C@H](O)[C@@H](NC(=O)c4ccccc4)c4ccccc4)C[C@@](O)([C@@H](OC(=O)c4ccccc4)C12)C3(C)C (some centres undefined),1.0,0.71,4.1,2.0,nt,-1,0.0
CCN(CC)C(=O)c1ccc(N(Cc2ccccc2)S(C)(=O)=O)cc1,1.0,0.67,183,1.4,nt,-4,0.3
O=[N+]([O-])c1ccc(C2C3C(c4ccccc4)=NC4(CCCCC4)N32)cc1 (centres undefined),2.8,0.71,-3.9,3.1,12%,-18,0.1
CCCCCn1c(=O)c(C(=O)NCc2ccccn2)c(O)c2ccccc21,8.8,0.78,1.8,1.3,3%,-10,-0.7
COc1cccc(CCNCc2c(F)cccc2F)c1,8.6,0.66,-0.9,-0.9,6%,-9,0.0
O=C(O)CNC1c2ccccc2CSc2ccccc21 (centres undefined),-3.2,0.6,0.0,1.1,nt,2,0.5
Cc1nc2cc([N+](=O)[O-])ccc2c(=O)n1-c1ccc(Br)cc1,0.9,0.65,-2.4,3.2,nt,10,2.9
Cn1c(O)c(N=Nc2ccc(S(=O)(=O)N3CCOCC3)cc2)c(=O)n(C)c1=O,2.2,0.69,0.7,10,3%,2,0.6
CC(C)Nc1nc(Cl)nc(NC(C)C)n1,4.5,0.72,0.5,5.6,1%,11,0.2
O=c1c2ccccc2nc(-c2ccccc2)n1-c1cccnc1,9.9,0.61,7.5,1.0,7%,-6,0.5
CCc1c(C)nc(N)nc1N1N=C1SC(C(C)=O)C(C)=O,-1.2,0.69,-3.5,6.3,nt,2,0.0
CC1(c2ccccc2)NCCN2C(=O)CSC21 (centres undefined),-0.6,0.7,1.6,1.1,31%,-1,0.9
O=C1NC(c2cc3ccccc3nc2Cl)Nc2ccccc21 (centres undefined),-2.4,0.69,-2.6,3.9,23%,-1,0.0
O=C(Cn1cnc2sc3c(c2c1=O)CCCC3)NCCC(=O)N1CCC2(CC1)OCCO2,-0.4,0.68,-1.9,1.0,0%,-3,0.8
Oc1cc2c(cc1CN1CCN(c3ccccc3)CC1)CCC2,-0.6,0.71,-0.2,2.0,0%,19,0.6
C=C1C(=O)OC2CC(C)C3C=CC(=O)C3(C)C(O)C12 (centres undefined),nt,nt,-0.1,nt,8%,22,nt
CCN1CCN(c2nc3ccccc3s2)CC1,-5.7,0.62,-2.0,6.3,7%,10,-0.6
O=C(N/N=C/c1c(O)n(CCC2=CCCCC2)c(=S)[nH]c1=O)c1ccccc1,-3.9,0.69,9.4,-94,nt,11,-0.1
O=[N+]([O-])c1cc(Cl)c(O)c(-[n+]2c(-c3ccccc3)cc(-c3ccccc3)cc2-c2ccccc2)c1,-6.5,0.64,2.5,8.3,nt,2,-0.2
CC(=O)c1ccc(NC2=NCCCS2)cc1,-2.9,0.67,1.6,1.2,1%,5,0.5
CC(=O)Nc1ccc(C(c2c(O)c3ccccc3oc2=O)c2c(C)n(C)n(-c3ccccc3)c2=O)cc1 (centres undefined),1.6,0.68,1.6,2.1,0%,3,0.7
COC(=O)C1=C(c2ccc(OC)c(OC)c2)C[C@@H]2CC[C@H]1N2C(=O)NCc1ccco1,2.8,nt,2.1,6.8,nt,10,-1.2
CCN1CCN(Cc2cc(Br)ccc2O)CC1,7.6,0.7,5.2,4.3,3%,5,0.4
O=C(Nc1nccs1)c1c(O)c2c(n(Cc3ccco3)c1=O)CCCC2,-10,0.64,-1.6,-4.5,-9%,1,0.3
CCN(CC)C1=NC(=[N+](CC)CC)c2ccccc21,-0.8,0.71,0.2,-18,2%,7,2.1
CCOC(=O)C1=C(C)c2ccccc2OC1(C(=O)OCC)c1ccccc1 (centres undefined),nt,0.67,-4.1,0.4,3%,-1,nt
CC(C)N1CCN(Cc2cc3c(cc2Cl)OCO3)CC1CCO (centres undefined),-4.8,0.66,0.1,4.6,3%,-14,-1.1
C=CCn1c(O)c(C=Nc2ccc(F)cc2)c(=O)[nH]c1=O,0.1,0.7,-3.6,8.2,nt,5,0.3
CCc1ccc(NC(=O)C(C)OC(=O)c2c(C)nn(Cc3ccccc3)c2Cl)cc1 (centres undefined),3.3,0.71,-4.4,0.2,nt,5,-0.1
Cc1nn(Cc2ccccc2)c(C)c1C(=O)OCC(=O)Nc1cc(S(C)(=O)=O)ccc1Cl,-2.0,0.64,-0.3,-2.8,nt,-7,-1.0
CC(C)OC(=O)c1c(N)n(Cc2ccco2)c2nc3ccccc3nc12,-7.7,0.74,-3.9,i,4%&3%,-3,0.1
CC12CCC3C(CCC4CC(=O)CCC43C)C1CC(=NO)C2=O (centres undefined),nt,nt,4.5,nt,-8%,-9,nt
NCCc1ccccc1,-1.9,0.71,-0.5,0.2,nt,-5,0.1
CC(C)(C)P(=O)(N1CCOCC1)N1CCOCC1,0.5,0.73,-1.5,3.0,8%,-2,-0.6
CC(=O)C1C2c3ccccc3OC1(C)N=c1s/c(=C/c3cnn(C)c3)c(=O)n12 (centres undefined),1.6,nt,0.0,nt,6%,-3,-0.6
CCCN(CCC)[C@@H]1CCc2cccc(O)c2C1,0.6,nt,3.6,-1.6,8%,2,0.3
O=C(c1cccnc1)C1CCCN(Cc2nc(-c3cnccn3)no2)C1 (centres undefined),-1.1,0.73,-2.5,3.3,nt,-1,0.9
COc1cc(OC)c(OC)cc1CN1CCN(C(=O)COc2ccc3ccccc3c2)CC1,1.5,0.64,-1.7,2.0,nt,-3,0.1
OC1(CN2CCOCC2)C2CC3CC(C2)CC1C3 (centres undefined),3.3,0.65,0.4,1.1,0%,-9,0.5
COc1ccc(OCC#CCN2CCNCC2)cc1,-1.0,0.61,-2.3,2.7,nt,6,?
